ClpP mod: qHTS Assay for Activators of ClpP. Potency, µM (top dose mostly 57.5 µM), for the others: at the top dose activity change, negative = active. purified B. subtilis ClpP, FRET peptide cleavage, 20 min. actives 1.9% (n = 340,000); active = well fitted falling curve with a large enough effect; inconclusive = small, poorly fitted or top-dose-only effect; inactive = no such curve, though single readings can be large or run the other way; further: potency means the concentration at half of the fitted maximal effect; the source files actives as falling curves though it sought activators and does not explain the sign; nearly all actives have a fitted effect of over 65% in size; many hits overshoot -100%
Target sequence (P80244 whole entry, looked up): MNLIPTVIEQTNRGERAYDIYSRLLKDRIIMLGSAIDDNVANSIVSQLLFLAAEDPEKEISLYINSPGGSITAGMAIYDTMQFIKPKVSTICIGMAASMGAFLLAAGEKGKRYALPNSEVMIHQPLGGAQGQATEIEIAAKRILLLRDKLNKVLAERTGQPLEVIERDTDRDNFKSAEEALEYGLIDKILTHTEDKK
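Buffer: 100 mM Tris/HCl pH8, 100 mM KCl, 0.05% low protease BSA, 2.5% glycerol, 0.01% Tween-20. ClpP 10 microg/mL final; 20 min RT; delta FRET normalized to ADEP and DMSO controls.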
gsp ag: gsp mutant agonism; gsp mutant cells, cAMP HTRF, 30 min; control for the full effect not named in the record; Potency, µM (series often up to 76.9 µM), inactives show at the top dose activation (cAMP increase), usual class: activators; actives 0.13% (n = 340,000); active = well fitted activation curve with a large enough effect; inconclusive = small, poorly fitted or top-dose-only effect, or another doubt; inactive = no such curve, though single readings can be large or run the other way; cell line not stated here;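 further: phosphodiesterase inhibitor Ro 20-1724 added with compounds to block cAMP breakdown; potency means the concentration at half of the fitted maximal effect; nearly all actives have a fitted effect of over 60% in size; about a fifth of the inactives were tested at one dose only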
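Cells in DMEM/10% FBS with G418 were pretreated with compounds in DMSO plus […] (300 uM stock) for 30 min at 37C. cAMP was measured by HTRF (cAMP-d2 plus anti-cAMP antibody-K) after 30 min at room temperature.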
Menin MLL FP FL: inhibitors of human menin-MLL interaction, wild-type MLL peptide; Fluorescence polarization, fluorescein-MLL peptide displacement from menin; FP activity change, % at 61.4 µM; 290,000 tested, under 10 active; inconclusive = falling polarisation curve, or a change in total fluorescence; inactive = total fluorescence flat and polarisation flat or rising; no compound was filed as active; the % refers to the polarisation; negative = inhibition;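 further: % of control where 0% means no effect; inhibitors lower the polarisation; unlabelled MLL peptide was the positive control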
Sfp inh: blocks B. subtilis Sfp PPTase activity | Q9F4F7 | Biochemical Sfp PPTase activity, qHTS | Potency, µM, for the others: max response, negative = inhibition, usual class: inhibitors | actives 3.5% (n = 310,000); active means well fitted inhibition curve with a large enough effect; inconclusive means small, poorly fitted or top-dose-only effect, or another doubt; inactive means no such curve, though single readings can be large or run the other way;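 further: the enzyme is Sfp with the accession as filed and its product quenches rhodamine fluorescence; potency means the concentration at half of the fitted maximal effect; 0% = enzyme reaction without inhibitor and -100% = no enzyme wells; top concentration of the series not given in the record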
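Compounds were incubated with enzyme (final 15 nM) for 15 min at room temperature before substrate addition started the reaction. Fluorescence at 525 nm excitation, 598 nm emission was recorded immediately and after 30 minutes.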
gsp antag: antagonizes gsp, the McCune-Albright syndrome mutation; gsp-mutant cells, cAMP HTRF, 30 min; control for the full effect not named in the record; Potency, µM (highest dose often 76.9 µM), for the others: top-dose activity change, negative = inhibition, actives largely listed as inhibitors; actives 0.4% (n = 340,000); active = falling curve of any shape with a large fitted effect; inconclusive = falling curve, mostly with a smaller effect; inactive = flat or rising curve; cell line not stated here;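 further: intracellular cAMP measured with PDE inhibitor Ro 20-1724 present during compound exposure; potency means the concentration at half of the fitted maximal effect; on the % scale 0 is the no-effect control and ±100 the full control effect; nearly all actives have a fitted effect of over 65% in size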
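Measurement of cellular cAMP by homogeneous time-resolved fluorescence following a 30 min compound exposure at 37C. The PDE inhibitor […] was present throughout; the assay buffer was DPBS with 0.05% BSA and 0.005% Tween 20.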
TRPV1 potentiator: potentiators of human vanilloid receptor 1 (TRPV1). actives 0.02% (n = 320,000). AID 540277. potentiation, % at 8.33 µM. TRPV1-expressing cells, Fluo-8 calcium influx, capsaicin EC20 potentiation; host cell line not named in the record; control for the full effect not named in the record; active means potentiation above 80%; inconclusive means 30% to 80%; inactive means below 30%; further: 0% is about no effect
Target sequence (Q8NER1 whole entry, looked up): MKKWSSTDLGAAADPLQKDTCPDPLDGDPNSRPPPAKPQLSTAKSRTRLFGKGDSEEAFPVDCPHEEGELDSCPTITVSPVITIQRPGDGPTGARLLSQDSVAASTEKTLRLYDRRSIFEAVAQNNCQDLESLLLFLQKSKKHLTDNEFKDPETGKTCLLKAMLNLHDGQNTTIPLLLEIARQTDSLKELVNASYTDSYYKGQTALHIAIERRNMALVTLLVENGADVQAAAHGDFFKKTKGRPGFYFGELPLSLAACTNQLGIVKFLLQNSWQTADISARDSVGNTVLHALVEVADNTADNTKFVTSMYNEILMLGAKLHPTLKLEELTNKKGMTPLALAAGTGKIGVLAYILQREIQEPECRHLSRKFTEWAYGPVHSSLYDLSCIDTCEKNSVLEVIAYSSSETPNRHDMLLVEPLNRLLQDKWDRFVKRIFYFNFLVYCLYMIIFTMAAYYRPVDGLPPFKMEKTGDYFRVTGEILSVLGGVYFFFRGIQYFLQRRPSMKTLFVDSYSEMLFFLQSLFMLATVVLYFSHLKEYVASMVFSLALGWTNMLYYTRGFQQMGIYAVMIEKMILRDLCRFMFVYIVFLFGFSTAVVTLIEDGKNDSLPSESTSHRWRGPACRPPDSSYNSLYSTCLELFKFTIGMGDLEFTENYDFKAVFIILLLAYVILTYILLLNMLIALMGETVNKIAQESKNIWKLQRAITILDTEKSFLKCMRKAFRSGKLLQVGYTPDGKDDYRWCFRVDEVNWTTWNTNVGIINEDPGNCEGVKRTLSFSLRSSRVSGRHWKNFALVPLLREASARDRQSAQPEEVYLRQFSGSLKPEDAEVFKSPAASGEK
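Fluo-8 calcium influx in TRPV1-expressing cells, kinetic read (ex 480/em 520 nm). Compound added and read 3 min for agonist activity, followed by capsaicin at EC20 final and 2 min further read for enhancement.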
D2 PAM: potentiates the human D2 dopamine receptor allosterically; P14416; DiscoveRx D2 beta-arrestin cells, luminescence, 90 min; 100% = 57 uM dopamine signal; potentiation, % (no concentration beside the values); actives 0.23% (n = 360,000); active = potentiation of 50% or more; inconclusive = 30% to 50%; inactive = 30% or less;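 further: compound concentration not given in the record; tested on top of an EC20 dose of dopamine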
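PathHunter D2 cells, attached overnight at 37 deg C, received compound in DMSO plus dopamine at EC20 (50 nM final) for 90 min at 37 deg C. Beta-arrestin recruitment was read as luminescence after 1 h with detection reagent at ambient temperature.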
* hit, by the source's call; ? = inconclusive; · = no result given; & = joins results of further samples; [ ] = dose if it differs, or a comment.

SMILES | ClpP mod | gsp ag | Menin MLL FP FL | Sfp inh | gsp antag | TRPV1 potentiator | D2 PAM
CCC(=O)Nc1ccc(N2CCCCC2)c(C(=O)Nc2ccc(OC)cc2)c1 | 0.8% | -1%[15.4 µM] | -1.5 | -5% | ? | -9 | -23
CCCN(CC(=O)Nc1ccc(F)c(F)c1F)CC(=O)Nc1c(Cl)cccc1Cl | ? | -21% | 5.4 | 8% | -11% | -3 | -9
O=C(COc1ccccc1-c1ccccc1)NCCN1C(=O)S/C(=C\c2cccnc2)C1=O | 145% | 16% | 4.0 | 3% | -22% | 3 | 1
O=c1oc(-c2ccccc2)nc2c1C1(CCCCC1)Cc1ccccc1-2 | -3.1% | -4% | 2.5 | 8% | 2% | 3 | -12
COCc1cc(CNC(=O)C2CCC(=O)N(Cc3ccccc3F)C2)[nH]n1 (stereo not given) | -0.9% | 0%[15.4 µM] | · | 4% | 8% | -13 | -9
COc1ccc(CCNC(=O)c2c(O)c3c([nH]c2=O)CCCC3)cc1 | -1.7% | -9% | 2.5 | 16% | 18% | 4 | -17
O=C(c1ccccn1)N(CC1CCCO1)C1(C(=O)NC2CCCCC2)CCCCC1 (stereo not given) | 1.4% | -12% | -0.2 | 8% | -5% | -20 | -12
COc1ccccc1Nc1c2ccccc2nc2ccccc12 | -2.6% | 34%[15.4 µM] | -0.6 | -11% | -20% | -1 | -12
CCOC(=O)CSc1nc2ccccc2c(=O)n1NC(=O)c1ccccc1 | 4.2% | -1% | -2.0 | 0% | -10% | 2 | -2
COc1ccc2nc(NC(=O)[C@@H]3CCCN3C(=O)c3cccs3)sc2c1 | · | -15%[15.4 µM] | 3.6 | -6% | -2% | 11 | -2
C#CCC(NC(=O)c1ccc(C(F)(F)F)cc1)C(=O)NCCC (stereo not given) | -1.5% | -14% | · | · | 3% | -8 | -16
COc1cc(C(=O)OC2CCN(C)CC2)cc(OC)c1OC | -0.5% | -3% | 4.1 | 12% | 14% | 3 | -8
Cc1cc(C(=O)N/N=C/c2c[nH]c3ccccc23)cs1 | -1.9% | -59%[inhibitor] | 0.2 | -3% | -4% | 0 | -23
N#CC/C(N)=N/NC(=O)CCCNc1ncc(C(F)(F)F)cc1Cl | · | 2%[15.4 µM] | 2.8 | 12% | 0% | 1 | 4
O=C(CCN1CCOCC1)N1c2ccccc2Sc2ccc(Cl)cc21 | 0.0% | 9% | -2.4 | 13% | 1% | -38 | -7
COc1ccc(N(CC(=O)Nc2ccccc2C(=O)NCC(C)C)S(C)(=O)=O)cc1 | 1.3% | -6% | -0.1 | -11% | -4% | -8 | -12
CCOc1ccccc1/C=c1\sc2nc(-c3ccco3)nn2c1=O | -0.5% | -4% | ? | ? | -9%[15.4 µM] | 7 | -10
CCN(CC(=O)Nc1ccc(OC)cc1)C(=O)CSCC(=O)Nc1cc(C)on1 | -3.2% | -20% | · | · | -5% | -26 | 0
Cc1nn(CCCC(=O)NCCc2ccccc2)c(=O)c2nccn12 | 0.5% | ? | 2.3 | 3% | 6% | -3 | -1
Cc1cccc(N2CC(C(=O)OCC(=O)c3c(N)n(CC(C)C)c(=O)n(C)c3=O)CC2=O)c1C (stereo not given) | -0.4% | -4% | · | · | -18% | -5 | 17
C[C@H](CO)N1C[C@H](C)[C@@H](CN(C)C(=O)Cc2ccccc2)OCCCC[C@H](C)Oc2ccc(NC(=O)NC3CCCCC3)cc2C1=O | -7.3% | 18% | · | · | · | · | -4
CCC(C(=O)NC1CCCCC1)n1c(SCc2cccc(F)c2)nc2ccncc21 (stereo not given) | -18%&-10.0% | 29% | 7.3 | -7% | 0% | 5&7 | -10
Cc1cc(C)n(-c2ccc(C(=O)Nc3cc(C(F)(F)F)ccc3N3CCOCC3)cc2)n1 | -4.0% | -81% | 6.7 | 6% | 8% | 13 | 9
Cc1ccc(CN2CC(C(=O)N3CCN(S(=O)(=O)c4ccccc4)CC3)CC2=O)cc1 (stereo not given) | · | -31%[15.4 µM] | · | · | -3% | 20 | 1
COc1cc(C2CC(=O)Nc3cc(C)c(C)cc32)cc(OC)c1OC (stereo not given) | -1.7% | -3% | 2.9 | -1% | 12% | -22 | -12
CC(=O)Nc1cccc(NC(=O)c2ccc([N+](=O)[O-])cc2Cl)c1 | 2.6% | -28% | 2.6 | 11% | -6% | 10 | 16
Cc1ccc(C(=O)NC(=S)NCC2CCCO2)cc1[N+](=O)[O-] (stereo not given) | · | 22% | -0.6 | 9% | -5% | 5 | -8
O=C(CN1CCCCC1)Nc1ccccc1-c1ccccc1 | -1.7% | 7% | -3.1 | 2% | 4% | -6 | -19
COc1cc(C(=O)NC2CCN(C)CC2)ccc1Nc1ncc2c(n1)N(Cc1ccccc1)CCC(=O)N2C | -12% | · | · | · | -3% | · | -15
Cc1nn(-c2ccc3ccccc3c2)c(=O)c2ccccc12 | -13% | -38%[inhibitor] | 0.4 | -16% | -12% | 7 | -10
COc1cc(CNCCN2CCOCC2)ccc1OCc1ccc(Cl)cc1 | -0.5% | 28% | -0.3 | 3% | 11% | -9 | -18
O=C(Nc1cccc([N+](=O)[O-])c1)ONC1=NCCCCC1 | · | 21%[15.4 µM] | 0.4 | 17% | 9% | -1 | 5
COc1cc2c(cc1OC)C(/C=C/c1ccco1)=NCC2 | -4.1% | -11% | ? | -1% | 1% | -7 | -29
O=C(Nc1cccc(Cl)c1N1CCCC1)c1ccco1 | · | 22% | 3.7 | -10% | -1% | 1 | -1
O=C(O)CSC1CC(=O)N(c2ccc(Cl)cc2)C1=O (stereo not given) | -3.9% | ? | 1.5 | 4% | 10% | 1 | 6
CN(C)c1nnnn1-c1ccc(Oc2ncc(C(F)(F)F)cc2Cl)cc1 | · | 6%[15.4 µM] | 2.7 | -21% | 6% | 2 | -6
Nc1nc(COc2ccccc2)cs1 | -0.3% | 5% | -0.3 | 8% | -6% | -2 | -9
CCc1ccccc1NC(=O)CSc1nnc(C2CC2)n1CC1CCCO1 (stereo not given) | · | -6% | -7.9 | 5% | -1% | -3 | -2
COC(=O)c1nc(NC2=NCCCCC2)n[nH]1 | 0.1% | 15% | -0.9 | -16% | -4% | -8 | 6
CC1CCN(S(=O)(=O)c2cccc(C(=O)NNC(=O)c3ccco3)c2)CC1 | · | -21%[15.4 µM] | -3.0 | 2% | -5% | -9 | -2
O=C(Nc1ccc(F)cc1)Nc1ccc(S(=O)(=O)N2CCCC2)cc1 | -0.9% | -9% | · | · | -5% | -2 | 6
COc1ccc(C2(CNC(=O)c3cc(OC)c(OC)c(OC)c3)CCCC2)cc1OC | · | 0% | · | · | -13% | · | -2
O=c1c2ccc([N+](=O)[O-])cc2ncn1CCOc1ccc(Cl)cc1 | -0.3% | -27% | -0.8 | 3% | -1% | 18 | 13
CCCCCC(=O)N1CCN(CCN=CC2=C(O)CC(c3ccco3)CC2=O)CC1 (stereo not given) | 0.8% | -50%[inhibitor] | 3.5 | 5% | 0% | -2 | -5
Clc1nc(Cl)nc(N(c2ccccc2)c2ccccc2)n1 | -2.4% | -64%[inhibitor] | 9.9 | -25% | 4% | -3 | -5
C=CCn1c(C)nnc1SCC(=O)Nc1cc(S(=O)(=O)N2CCCC2)ccc1Cl | 1.1% | 1%[15.4 µM] | · | · | 5% | 14 | 1
O=C(COC(=O)CNS(=O)(=O)c1ccccc1)Nc1ncc(Cl)cc1Cl | -2.9% | -9% | · | · | -6% | 0 | -3
COc1ccc(-c2c(-c3ccccc3)c(C(=O)C(=O)NCCCN(C)C)n3ccc4cc(OC)c(OC)cc4c23)cc1OC | -0.8% | 9%[15.4 µM] | 0.8 | -17% | -20% | -10 | -16
COc1cccc(C2CC(c3ccc(C)cc3)n3nc(N)nc3N2)c1 (stereo not given) | ? | -142%[inhibitor] | 1.5 | 7% | 7% | 3 | -8
CC(C)c1ccc(NC(=S)NN2CCOCC2)cc1 | 0.9% | -6% | 0.4 | 26% | -14% | -11 | 2

Sorted by SMILES length (smallest number first): part of the list above.
SMILES | ClpP mod | gsp ag | Menin MLL FP FL | Sfp inh | gsp antag | TRPV1 potentiator | D2 PAM
COc1cc2c(cc1OC)C(/C=C/c1ccco1)=NCC2 | -4.1% | -11% | ? | -1% | 1% | -7 | -29
N#CC/C(N)=N/NC(=O)CCCNc1ncc(C(F)(F)F)cc1Cl | · | 2%[15.4 µM] | 2.8 | 12% | 0% | 1 | 4
O=c1c2ccc([N+](=O)[O-])cc2ncn1CCOc1ccc(Cl)cc1 | -0.3% | -27% | -0.8 | 3% | -1% | 18 | 13

Further results follow.
SMILES | ClpP mod | gsp ag | Menin MLL FP FL | Sfp inh | gsp antag | TRPV1 potentiator | D2 PAM
CC(=O)c1ccc(O[C@@H]2O[C@H](CO)[C@@H](O)[C@H](O)[C@H]2O)cc1 | 1.0% | · | · | · | 15% | · | -2
Cn1cccc1CC(=O)NNC(=O)Nc1ccccc1F | 1.5% | -34%[inhibitor] | · | · | 17% | 1 | -14
CCC(C)C(NC(=O)C1CCC(C)CC1)C(=O)NCCc1ccc(S(N)(=O)=O)cc1 (stereo not given) | -4.5% | -2% | 9.7 | 5% | 7% | 11 | -9
CCc1nonc1NC(=O)COc1ccc(Cl)c(C)c1 | 3.1% | 3% | · | 1% | 8% | -1 | -13
CC1=Nc2ncnn2C(c2ccccc2)/C1=N\O (stereo not given) | 4.9% | 1% | 4.2 | -1% | -8% | 9 | -3
CCOC(=O)c1cc2c(ccn2C)n1CC(=O)N1CCN(c2cccc(C(F)(F)F)c2)CC1 | ? | 18% | -8.8 | -21% | -8% | 1 | -6
CCc1ccc(-n2nc3ccc(NC(=O)c4ccc5c(c4)OCO5)cc3n2)cc1 | 3.2µM* | -50% | 0.3 | 15% | 4% | 1 | -18
CN(C)c1ccc(NS(=O)(=O)c2cc3c4c(c2)CC(=O)N4CCC3)cc1 | -2.4% | 4% | · | -13% | -14% | 1 | 2
CC(=O)C1=C(C)NC(=O)NC1c1cccc(O)c1 (stereo not given) | 0.1% | -19% | 4.3 | 11% | -3% | -13 | -6
O=C1c2nc3ccccn3c2C(=O)N1Cc1ccccc1 | 32% | -3% | 3.8 | 0% | 11% | 10 | -11
Cc1ccc(Cn2cnc3ccccc32)cc1C | 0.4% | -12% | 0.2 | -8% | 2% | 3 | -14
COCCN(C(=O)c1ccc(OCC(C)C)cc1)c1c(N)n(Cc2ccccc2)c(=O)[nH]c1=O | · | -4%[15.4 µM] | · | · | -4% | 25 | 6
